# hNpr1 antagonist – blocks ANP-stimulated signaling of human Npr1 receptor; Potency, µM (highest dose often 46.3 µM), for inactives: top-dose activity change, negative = inhibition, usual class: inhibitors; 76,000 tested, 1.6% active; P16066; AID 1347048; HEK293 hNpr1 GloSensor cGMP, ANP-stimulated luminescence; active = well fitted inhibition curve with a large enough effect; inconclusive = small, poorly fitted or top-dose-only effect; inactive = no such curve, though single readings can be large or run the other way;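 further: nearly all actives have a fitted effect of over 60% in size; nearly all hits also lower the signal before the agonist is added; a reference antagonist and vehicle were the controls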
# Target sequence (P16066 whole entry, looked up): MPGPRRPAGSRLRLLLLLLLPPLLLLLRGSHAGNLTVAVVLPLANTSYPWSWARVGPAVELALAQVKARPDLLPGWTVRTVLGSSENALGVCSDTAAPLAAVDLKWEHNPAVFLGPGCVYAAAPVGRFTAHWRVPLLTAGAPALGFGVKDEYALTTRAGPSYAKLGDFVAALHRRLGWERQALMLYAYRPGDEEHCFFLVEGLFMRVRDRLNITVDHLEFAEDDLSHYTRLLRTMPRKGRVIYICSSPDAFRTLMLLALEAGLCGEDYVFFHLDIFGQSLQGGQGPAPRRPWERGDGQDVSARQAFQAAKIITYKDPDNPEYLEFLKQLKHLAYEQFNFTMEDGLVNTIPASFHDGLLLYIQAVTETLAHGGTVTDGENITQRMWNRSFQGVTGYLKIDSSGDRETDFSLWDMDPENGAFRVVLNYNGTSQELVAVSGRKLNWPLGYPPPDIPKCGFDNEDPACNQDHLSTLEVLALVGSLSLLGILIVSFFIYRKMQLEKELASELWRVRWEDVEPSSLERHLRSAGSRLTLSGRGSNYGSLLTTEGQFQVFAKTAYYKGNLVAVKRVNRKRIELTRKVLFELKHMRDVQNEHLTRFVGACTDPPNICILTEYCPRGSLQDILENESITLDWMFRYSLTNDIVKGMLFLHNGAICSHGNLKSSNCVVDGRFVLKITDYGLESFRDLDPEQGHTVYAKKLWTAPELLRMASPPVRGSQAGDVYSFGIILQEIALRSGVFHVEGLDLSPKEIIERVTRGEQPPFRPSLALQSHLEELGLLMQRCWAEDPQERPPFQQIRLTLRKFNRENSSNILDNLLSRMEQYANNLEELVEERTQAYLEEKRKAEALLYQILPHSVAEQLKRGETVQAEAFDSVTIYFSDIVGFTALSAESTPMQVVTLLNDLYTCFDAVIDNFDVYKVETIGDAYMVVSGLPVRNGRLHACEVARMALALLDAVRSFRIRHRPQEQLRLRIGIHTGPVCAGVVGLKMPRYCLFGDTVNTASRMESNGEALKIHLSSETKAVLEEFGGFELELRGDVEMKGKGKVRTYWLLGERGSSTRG
#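 HEK293 cells stably expressing human Npr1 and cGMP GloSensor pGS-40F, loaded 2 h with 2% GloSensor reagent, given compound 30 min at room temperature. Luminescence read before and 20 min after 0.1 nM hNppA.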
# Starred values were filed as active, the others as inactive; ? = inconclusive; & = joins results of further samples; [ ] = dose if it differs, or a comment. On the % scale 0 is the no-effect control and ±100 the full control effect; potency means the concentration at half of the fitted maximal effect.
SMILES,hNpr1 antagonist
COc1ccc(OC)c(S(=O)(=O)NC[C@H]2C[C@@H]3CCN2C[C@@H]3c2cc(-c3ccccc3OC)nn2C)c1,-3%
CCn1c(C2CCCNC2)nn(C)c1=O (stereo unspecified),4%
COc1ccc(-c2cc([C@H]3CN4CC[C@H]3C[C@@H]4CNS(=O)(=O)c3ccccc3)n(C)n2)cc1OC,-2%
C#C[C@H]1CN2CC[C@H]1C[C@@H]2CNS(=O)(=O)c1cccc(F)c1,3%[70.6 µM]
O=C(c1ccoc1)N1CC(CO)C2(CCNCC2)C1 (stereo unspecified),6%
Cc1cccc(CC(=O)N2[C@H]3CC[C@@H]2c2cnc(-c4ccc(F)cc4)nc2C3)c1,-19%
CCC(CC)c1cc([C@H]2CN3CC[C@H]2C[C@@H]3CNC(=O)CCCC(=O)O)nc(-c2ccncc2)n1,2%
COc1cc2c(cc1OC1CCCC1)NC(=O)C21CCN(Cc2ccccc2O)CC1,-20%[70.6 µM]
COc1ccccc1C(=O)N1CCC2(CC1)c1nccn1-c1ccccc1CN2C,-16%
CN(Cc1ccccc1)C[C@H]1CN2CC[C@H]1C[C@@H]2CNC(=O)c1ccc(N(C)C)cc1,0%[70.6 µM]
COc1ccc(C(=O)N2C[C@@H]3C[C@H](C2)c2c(NC(=O)CSC)ccc(=O)n2C3)cc1,1%[70.6 µM]
COc1cc2c(cc1OC1CCCC1)NC(=O)C21CCN(Cc2nccs2)CC1,-4%[70.6 µM]
CC(C)c1nccn1C(C)C(=O)N1CCC(C#N)(c2ccccc2)CC1 (stereo unspecified),-9%
Cc1ccc(C(=O)NC[C@H]2C[C@@H]3CCN2C[C@@H]3c2cc(-c3cccs3)nc(C)n2)cc1,-20%[70.6 µM]
C#C[C@H]1CN2CC[C@H]1C[C@@H]2CNC(=O)c1ccc(-c2ccccc2)cc1,1%[70.6 µM]
Cn1cc(CNCC2(CO)C[C@@H](O)[C@@H](O)C2)c2ccccc21 (stereo partly specified),-3%&-1%[70.6 µM]
Cn1nc(C2CCCCC2)cc1[C@H]1CN2CC[C@H]1C[C@@H]2CNC(=O)c1ccco1,4%[70.6 µM]
CCn1ccc(C(=O)N2CCC3(CC2)NCc2ccccc2-n2ccnc23)n1,1%
COc1cc2c(cc1OCc1cccnc1)N(C(=O)Cc1cccc(Cl)c1)CC21CCN(CC(=O)O)CC1,0%
COc1ccc([C@@H]2CN(c3nccc(C)n3)[C@@H]3C4CCN(CC4)[C@@H]32)cc1,2%
CC(=O)N1CCC(C(=O)N2CCC3(CC2)NCc2ccccc2-n2ccnc23)CC1,-1%
COCC1CN(Cc2cccnc2)CC12CCNCC2 (stereo unspecified),-1%
COc1ccc(S(=O)(=O)N2C[C@@H]3C[C@H](C2)c2ccc(-c4ccccc4C)c(=O)n2C3)cc1,-2%
CC(C)(O)c1cn(C[C@H]2C[C@@H]3CCN2C[C@@H]3C(=O)Nc2ccccc2)nn1,1%[70.6 µM]
Cc1ccccc1-c1ccc2n(c1=O)C[C@H]1C[C@@H]2CN(C(=O)CCC(=O)O)C1,3%[70.6 µM]
CC[C@H]1CN2CC[C@H]1C[C@@H]2CNC(=O)COc1ccccc1,1%[70.6 µM]
O=C(c1ccc(F)cc1)N1C[C@@H]2C[C@H](C1)c1ccc(-c3cncnc3)c(=O)n1C2,-1%[70.6 µM]
COCC1CN(C(C)=O)CC12CCNCC2 (stereo unspecified),-4%
O=C(NC1CCCCC1)N1C[C@@H]2C[C@H](C1)c1ccc(C3CCCCC3)c(=O)n1C2,-2%[70.6 µM]
CC[C@H]1CN2CC[C@H]1C[C@@H]2CNC(=O)c1ccco1,1%[70.6 µM]
CCC(CC)c1cc([C@H]2CN3CC[C@H]2C[C@@H]3CNC2CCN(C(C)=O)CC2)nc(-c2ccncc2)n1,-8%
COCC(=O)N1[C@H]2CC[C@@H]1c1cnc(-c3ccc(F)cc3)nc1C2,1%
Cc1ccccc1-c1ccc2n(c1=O)C[C@H]1C[C@@H]2CN(C(=O)NC(C)C)C1,-1%[70.6 µM]
C=C[C@H]1CN2CC[C@H]1C[C@@H]2CNCc1ccc(SC)cc1,-5%[70.6 µM]
CC(C)(O)c1cn(C[C@H]2CC3CCN2C[C@@H]3C(=O)NCc2ccccc2)nn1 (stereo partly specified),0%[70.6 µM]
CC(=O)c1ccc(NC(=O)NC[C@H]2C[C@@H]3CCN2C[C@@H]3c2cc(-c3cccs3)nc(C)n2)cc1,-2%
Cc1ncc2c(n1)C[C@@H]1CC[C@H]2N1C(=O)c1ccccn1,-2%
CC(=O)Nc1ccc(-c2ccc3n(c2=O)C[C@H]2C[C@@H]3CN(C3CCN(C)CC3)C2)cc1,-1%[70.6 µM]
COc1cc(NC(=O)OC[C@H]2C[C@@H]3CCN2C[C@@H]3c2cc(-c3ccc(N(C)C)cc3)nc(C)n2)cc(OC)c1,?
O=C(Nc1ccccc1)N1C[C@@H]2C[C@H](C1)c1c(-c3ccccc3F)ccc(=O)n1C2,-3%[70.6 µM]
CN1Cc2ccccc2-n2ccnc2C12CCN(C(=O)C1(c3ccccc3)CC1)CC2,?
CN1C(=O)CO[C@H]2CN(Cc3cccnc3)C[C@H]21,4%[70.6 µM]
OC[C@H]1C[C@@H](NC2CCC2)[C@H](O)[C@@H]1O,-3%[122 µM]
CCn1ccc(C(=O)N2[C@H]3CC[C@@H]2c2cnc(C)nc2C3)n1,-1%
COc1ccc(C(=O)N2CC3(CCN(C)CC3)c3cc(OC)c(OCc4ccccc4)cc32)cn1,5%
C=C[C@H]1CN2CC[C@H]1C[C@@H]2CNC(=O)Nc1cccc(SC)c1,-2%[70.6 µM]
COc1cccc([C@H]2CN(C(=O)Cc3cnc[nH]3)[C@@H]3C4CCN(CC4)[C@H]23)c1,4%
CCc1cnc(N2CCC3(CC2)C(=O)Nc2cc(OC4CCCC4)c(OC)cc23)nc1,-1%[70.6 µM]
O=C(Nc1ccc2c(c1)OCCO2)N1[C@H]2CC[C@@H]1c1cncnc1C2,2%
CCCS(=O)(=O)NC[C@H]1C[C@@H]2CCN1C[C@@H]2c1cc(C2CCCC2)nn1C,4%[70.6 µM]
CCn1cc(S(=O)(=O)N2[C@H]3CC[C@@H]2c2cnc(-c4ccccc4)nc2C3)cn1,3%
COc1cc2c(cc1OC1CCCC1)NC(=O)C21CCN(c2nc(C)cc(C)n2)CC1,-8%[70.6 µM]
CC[C@H]1CN2CC[C@H]1C[C@@H]2CNC(=O)CC(C)(C)CC(=O)O,-2%[70.6 µM]
O=C(O)c1cn(Cc2ccc(F)cc2Cl)nn1,7%
CC(C)CCN1CCN2C(=O)NC[C@H]2C1,-2%[122 µM]
Cc1nc(-c2ccc(N(C)C)cc2)cc([C@H]2CN3CC[C@H]2C[C@@H]3CNC(=O)c2ccco2)n1,-3%
Cc1ccccc1-c1ccc2n(c1=O)C[C@H]1C[C@@H]2CN(C(=O)c2cnccn2)C1,1%[70.6 µM]
Cc1nc(-c2cccs2)cc([C@H]2CN3CC[C@H]2C[C@@H]3CNC(=O)c2ccc3c(c2)OCO3)n1,-7%
N#CC1(c2ccccc2)CCN(C(=O)c2cn(-c3ccccc3)nn2)CC1,6%
Cc1ccc(C)c(CC(=O)N2CCN(CCO)CC(O)C2)c1 (stereo unspecified),-4%
# Following part:
SMILES,hNpr1 antagonist
CC[C@H]1CN2CC[C@H]1C[C@@H]2CNCc1ccc(SC)cc1,1%[70.6 µM]
Cn1nc(C2CCCCC2)cc1[C@H]1CN2CC[C@H]1C[C@@H]2CNC(=O)Nc1cccc(C#N)c1,-8%
Cn1nc(C2CCCC2)cc1[C@H]1CN2CC[C@H]1C[C@@H]2CNS(=O)(=O)c1cccs1,-7%[70.6 µM]
COc1cc2c(cc1OCc1ccccc1)N([S+](=O)([O-])c1cccnc1)CC21CCN(C)CC1,2%
Cn1nc(-c2ccc3ccccc3c2)cc1[C@H]1CN2CC[C@H]1C[C@@H]2CNC(=O)c1cccs1,-4%
COc1ccccc1CNC(=O)[C@H]1CN2CCC1C[C@@H]2Cn1cc(CSc2ccccc2)nn1 (stereo partly specified),0%
O=C(CC1CCCC1)N1[C@H]2CC[C@@H]1c1cnc(-c3ccccc3)nc1C2,5.6µM*
C=C[C@H]1CN2CC[C@H]1C[C@@H]2CNCc1ccc(OC)cc1,0%[70.6 µM]
Cc1ccc(S(=O)(=O)NC[C@H]2C[C@@H]3CCN2C[C@@H]3CN2CCN(c3ncccn3)CC2)cc1,-2%
O=c1ccc(-c2ccccc2F)c2n1C[C@H]1C[C@@H]2CN(Cc2ccc(CO)o2)C1,4%[70.6 µM]
COCCC(=O)N1[C@H]2CC[C@@H]1c1cnc(-c3ccccc3)nc1C2,15%
O=C1NCCCCCCN[C@H]2CCC[C@@H]12,5%
CN(C)c1ccc(C(=O)NC[C@H]2C[C@@H]3CCN2C[C@@H]3CN2CCN(c3ccc(F)cc3)CC2)cc1,-12%
CC(=O)c1ccc(NC(=O)NC[C@H]2C[C@@H]3CCN2C[C@@H]3CN2CCC(C)CC2)cc1,1%[70.6 µM]
O=C(CCc1nc2ccccc2[nH]1)N1[C@H]2CC[C@@H]1c1cnc(-c3ccc(F)cc3)nc1C2,-2%
O=c1ccc(-c2ccc(Cl)cc2)c2n1C[C@H]1C[C@@H]2CN(S(=O)(=O)c2cccs2)C1,2%
O=C(NC[C@H]1C[C@@H]2CCN1C[C@@H]2CN1CCOCC1)Nc1ccsc1,1%[70.6 µM]
Cc1ncc2c(n1)C[C@@H]1CC[C@H]2N1C(=O)CC1CCCC1,2%
O=C1CO[C@H]2CN(Cc3cccnc3)C[C@H]2N1,4%[70.6 µM]
COCCO[C@H]1COCCN(C2CCOCC2)C1,-3%[70.6 µM]
O=C(c1ccncc1)N1C[C@@H]2C[C@H](C1)c1ccc(-c3cccc(C(F)(F)F)c3)c(=O)n1C2,5%
COCCC(=O)N1CCC2(CC1)C(=O)Nc1cc(OCc3ccccc3)c(OC)cc12,-4%[70.6 µM]
Cn1cc(CN[C@@H]2C[C@H](CO)[C@@H](O)[C@H]2O)c2ccccc21,3%[70.6 µM]
O=C(c1cocn1)N1C[C@H](c2cccc(F)c2F)[C@@H]2[C@H]1C1CCN2CC1,-3%
C=C[C@H]1CN2CC[C@H]1C[C@@H]2CNCc1cccc(C#N)c1,0%[70.6 µM]
CN1Cc2ccccc2-n2ccnc2C12CCN(C(=O)c1cccc(Cl)c1)CC2,-1%
O=c1ccc(-c2cccs2)c2n1C[C@H]1C[C@@H]2CN(S(=O)(=O)c2cccs2)C1,-9%[70.6 µM]
CS(=O)(=O)N1C[C@H]2CCNC[C@H]21,3%
CCN(CC)C[C@H]1CN2CC[C@H]1C[C@@H]2CNC(=O)Nc1ccccc1,-2%[70.6 µM]
COc1cc2c(cc1Oc1cccc(N(C)C)c1)NC(=O)C21CCN(Cc2nccn2C)CC1,-23%
CSCC(=O)N1C[C@@H]2C[C@H](C1)c1c(-c3ccc(SC)cc3)ccc(=O)n1C2,2%[70.6 µM]
COc1ccc(-c2cc([C@H]3CN4CC[C@H]3C[C@@H]4COC(=O)NC(C)C)n(C)n2)cc1,-3%[70.6 µM]

# Compounds from the list above that have a halogen:
SMILES,hNpr1 antagonist
C#C[C@H]1CN2CC[C@H]1C[C@@H]2CNS(=O)(=O)c1cccc(F)c1,3%[70.6 µM]
Cc1cccc(CC(=O)N2[C@H]3CC[C@@H]2c2cnc(-c4ccc(F)cc4)nc2C3)c1,-19%
COc1cc2c(cc1OCc1cccnc1)N(C(=O)Cc1cccc(Cl)c1)CC21CCN(CC(=O)O)CC1,0%
O=C(c1ccc(F)cc1)N1C[C@@H]2C[C@H](C1)c1ccc(-c3cncnc3)c(=O)n1C2,-1%[70.6 µM]
COCC(=O)N1[C@H]2CC[C@@H]1c1cnc(-c3ccc(F)cc3)nc1C2,1%
O=C(Nc1ccccc1)N1C[C@@H]2C[C@H](C1)c1c(-c3ccccc3F)ccc(=O)n1C2,-3%[70.6 µM]
O=C(O)c1cn(Cc2ccc(F)cc2Cl)nn1,7%
O=c1ccc(-c2ccccc2F)c2n1C[C@H]1C[C@@H]2CN(Cc2ccc(CO)o2)C1,4%[70.6 µM]
CN(C)c1ccc(C(=O)NC[C@H]2C[C@@H]3CCN2C[C@@H]3CN2CCN(c3ccc(F)cc3)CC2)cc1,-12%
O=C(CCc1nc2ccccc2[nH]1)N1[C@H]2CC[C@@H]1c1cnc(-c3ccc(F)cc3)nc1C2,-2%
O=c1ccc(-c2ccc(Cl)cc2)c2n1C[C@H]1C[C@@H]2CN(S(=O)(=O)c2cccs2)C1,2%
O=C(c1ccncc1)N1C[C@@H]2C[C@H](C1)c1ccc(-c3cccc(C(F)(F)F)c3)c(=O)n1C2,5%
O=C(c1cocn1)N1C[C@H](c2cccc(F)c2F)[C@@H]2[C@H]1C1CCN2CC1,-3%
CN1Cc2ccccc2-n2ccnc2C12CCN(C(=O)c1cccc(Cl)c1)CC2,-1%

# Not all compounds are listed (hit frequency here may not be typical).
